Screening data deposited in PubChem BioAssay by several laboratories.
Calb FLC: C. albicans growth inhibition with fluconazole, primary screen, CaCi-2 strain, Alamar Blue fluorescence; C. albicans CaCi-2 (fluconazole-resistant clinical isolate) + fluconazole, 48 h; growth inhibition, % (concentration not given with the values); actives 0.57% (n = 300,000);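 active = most replicates above 75%; inconclusive = exactly half above 75%; inactive = most below 75%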;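 also: all wells also contain fluconazole at 8 µg/ml as a sub-toxic cotreatment; 0% = median of DMSO wells and 100% = median of geldanamycin control wells; wells of about 8 µL received 7.5 nL stock; the first replicate is given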
RanGTP-Imp inh: inhibitors of RanGTP-importin-beta interaction, primary screen, biochemical, FRET, CFP-Ran, YFP-importin-beta, homogeneous | inhibition, % (no concentration beside the values) | actives 1.1% (n = 300,000) | cell-free CFP-Ran/YFP-importin-beta FRET ratio | AID 2216, 2009;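 active = most replicates above 15%; inconclusive = exactly half above 15%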;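 also: 0% = DMSO wells and 100% = Ran loaded with GDP instead of GTP; wells of about 40 µL received 100 nL stock; the first replicate is given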
LANA-H2A inh: blockers of LANA interaction with H2A/H2B – biochemical, FP readout, HTS, primary screen; Protein LANA1 (Human herpesvirus 8 type P (isolate GK18)), Q9QR71; AID 2629, 2010; inhibition, % (no concentration beside the values); actives 0.6% (n = 320,000); cell-free LANA-H2A/H2B peptide, fluorescence polarization; in the data active = inhibition mostly above about 10%, no sharp cut-off; inactive = mostly below about 6.7%;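 also: stock transfer was 7.5 nL into about 10 µL; 0% = median of vehicle wells and 100% = median of positive control wells; one replicate is shown; the record names a cut of 25% in any replicate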
ALR H2O2 inh: inhibitors of human ALR sulfhydryl oxidase, primary screen, biochemical, H2O2 detection, HRP-luminol luminescence, single point | FAD-linked sulfhydryl oxidase ALR (Homo sapiens), P55789 | purified ALR, DTT oxidation | inhibition, % (no concentration beside the values) | actives 3.8% (n = 290,000) | AID 485317, 2010;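 active = mean and each replicate at 75% or more; inconclusive = only one of the two met; inactive = neither met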;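 also: stock transfer was 7.5 nL into about 7.5 µL; 0% = neutral wells and 100% = wells with inactivated enzyme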
Target sequence (P55789 whole entry, looked up): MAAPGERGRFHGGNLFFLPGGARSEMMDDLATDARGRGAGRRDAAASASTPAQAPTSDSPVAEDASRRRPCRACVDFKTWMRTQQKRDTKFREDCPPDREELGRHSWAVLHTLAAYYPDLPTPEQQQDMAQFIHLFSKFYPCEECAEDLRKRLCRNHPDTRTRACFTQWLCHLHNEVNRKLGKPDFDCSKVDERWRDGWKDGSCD
Vif A3G: inhibitors of Vif binding to APOBEC3G peptide, primary screen, biochemical, TR-FRET, GST-Vif 1-94, biotin-A3G peptide, dose response retest (AID 1117319); Virion infectivity factor (Human immunodeficiency virus type 1 group M subtype B (isolate …; TR-FRET GST-Vif / biotin-A3G peptide binding; higher % means a stronger effect; test concentration not given here; strong numbers were not always called active; one-dose inhibition, %; IC50 in µM for titrated hits; actives 0.57% (n = 260,000);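 active = above the screen mean plus three standard deviations and confirmed in dose response; inconclusive = results disagree or hit not tested in dose response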;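 also: Vif residues 1-94 fused to GST binding biotinylated APOBEC3G peptide 110-148; 0% = full assay without inhibitor and 100% = GST in place of GST-Vif; retest series ran down from 100 µM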
HNF4A DNA FP: change in binding of human HNF4A to DNA, primary screen, biochemical, fluorescence polarization, FITC-DNA. Hepatocyte nuclear factor 4-alpha (Homo sapiens), P41235. 1 h. activity change, % at 10 µM. actives 0.3% (n = 360,000); in the data active = activity change above about 30%, passing the limit was not always enough;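 also: controls were the assay level and a saturating level of protein; the project sought stronger binding though the title names inhibitors; some compounds called inactive have numbers as strong as hits; positive values seem to mean higher polarization but the record does not say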
Target sequence (P41235 whole entry, looked up): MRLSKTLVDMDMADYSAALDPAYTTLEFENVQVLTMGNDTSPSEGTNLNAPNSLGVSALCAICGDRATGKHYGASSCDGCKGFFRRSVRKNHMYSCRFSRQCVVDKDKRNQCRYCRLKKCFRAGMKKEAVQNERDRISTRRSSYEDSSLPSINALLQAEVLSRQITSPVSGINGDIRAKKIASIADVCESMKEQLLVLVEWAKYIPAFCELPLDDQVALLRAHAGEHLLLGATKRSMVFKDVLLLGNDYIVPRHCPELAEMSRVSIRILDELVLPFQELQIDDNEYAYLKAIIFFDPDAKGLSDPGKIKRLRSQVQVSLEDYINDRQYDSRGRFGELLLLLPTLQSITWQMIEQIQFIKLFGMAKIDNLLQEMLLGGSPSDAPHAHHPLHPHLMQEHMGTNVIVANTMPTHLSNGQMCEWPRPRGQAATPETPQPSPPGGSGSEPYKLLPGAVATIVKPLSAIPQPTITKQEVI
B2AR ag: beta2AR agonists driving receptor internalization, primary screen, cell-based, FAP fluorogen, flow cytometry | Beta-2 adrenergic receptor (Homo sapiens), P07550 | Am2.2-beta2AR cells; reference of the scale not given here | response, % (test concentration not listed) | actives 0.43% (n = 340,000) | AID 504454, 2011;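 active = response above a set limit, near 3 SD of response in nonfluorescent compounds, cut at about 42% in these data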;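 also: stock transfer was 100 nL into about 11 µL; a reference agonist was the positive control; negative values mostly stem from fluorescent compounds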
Target sequence (P07550 whole entry, looked up): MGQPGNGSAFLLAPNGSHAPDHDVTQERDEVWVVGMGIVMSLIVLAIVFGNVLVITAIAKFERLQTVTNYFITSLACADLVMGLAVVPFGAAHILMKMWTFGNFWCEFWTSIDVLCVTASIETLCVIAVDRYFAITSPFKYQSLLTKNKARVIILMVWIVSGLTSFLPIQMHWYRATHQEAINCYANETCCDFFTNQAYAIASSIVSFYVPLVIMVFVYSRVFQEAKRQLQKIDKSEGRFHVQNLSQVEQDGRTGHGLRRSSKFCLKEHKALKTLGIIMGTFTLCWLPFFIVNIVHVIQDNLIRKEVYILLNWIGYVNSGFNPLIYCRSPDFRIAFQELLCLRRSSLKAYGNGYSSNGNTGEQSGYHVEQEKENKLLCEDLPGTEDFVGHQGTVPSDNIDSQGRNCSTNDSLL
The depositor's hits bear a star; ? = inconclusive; . = not tested or not shown; & = joins results of further samples.

No.	SMILES	Calb FLC	RanGTP-Imp inh	LANA-H2A inh	ALR H2O2 inh	Vif A3G	HNF4A DNA FP	B2AR ag
1	Fc1cnc(N2CCN(c3ccccc3)CC2)nc1N1CCN(c2ccccc2)CC1	-26	1.4	-2.6	5	-5%	1.3	2
2	c1ccc(C[n+]2ccc3ccccc3c2)cc1	-9	0.8	-3.7	-13	.	-0.6	-1
3	CCSc1ccccc1C(=O)Nc1cc(C)on1	?	-1.0	2.3	-13	17%	-1.9	-9
4	Cc1ccc(NC(=O)CCC(=O)NNC(=O)COc2ccc([N+](=O)[O-])cc2)c(C)c1	-20	.	-0.6	-8	6%	1.1	7
5	Cc1cccc(NC(=O)c2ccccc2NC(=O)Cc2ccccc2)c1C	-2	5.7	-1.5	4	9%	-3.3	-1
6	CCO/C=C1\C(=O)N(c2ccccc2)C(=O)c2ccccc21	.	.	-3.3	-9	1%	-0.6	0
7	O=C1CC(C(=O)N2CCc3ccccc32)CN1c1ccccc1 (configuration not stated)	1	-3.9	-3.9	-3	.	-0.5	-7
8	COc1ccc(C2SCCN2C(=S)Nc2ccc(Cl)cc2)cc1 (configuration not stated)	-24	-3.1	2.1	-3	-6%	5.1	-6
9	COc1cc2nc(=S)n3[nH]c(CCn4nc(C)cc4C)nc3c2cc1OC	1	-0.3	0.1	7	22%	3.9	-16
10	CCNC(=S)N/N=C/c1c(Cl)cccc1Cl	-63	1.2	7.8	-25	.	-3.0	6
11	CNc1sc(C(=O)c2ccccc2F)c(N)c1-c1nc2ccccc2s1	39	1.2	0.8	91*	3%	3.0	12
12	Cc1c(CNCCc2ccccc2Cl)c(C(=O)O)c(C)n1-c1ccccc1	-4	-1.5	-1.4	.	-7%	-3.2	-6
13	CCCOc1ccccc1N/C(=N/c1nc(C)cc(C)n1)NC(=O)COc1ccc(OC)cc1	1	1.3	2.8	-4	8%	1.1	2
14	COc1cc(C(=O)NCc2ccc(-n3cccc3)cc2)cc(OC)c1OC	41	0.9	0.1	.	.	0.8	-6
15	CCN(CC)CCCn1c2c(c(SCC(=O)Nc3cccc(C)c3C)nc1=O)CCC2	-10	0.0	0.4	-3	-5%	2.3	-6
16	O=C(Nc1ccc(Cl)cc1C(=O)O)c1ccc2c(c1)C(=O)N(Cc1ccco1)C2=O	-7	?	2.5	15	13%	-10	2
17	O=C(CSc1nc2ccccc2s1)NNC(=S)Nc1ccc(Br)cc1	17	-2.2	2.6	-9	1%&16%	0.5	10
18	COc1ccc(-c2n[nH]c(=S)n2-c2ccc(C)cc2C)cc1	-5	0.2	-4.9	46	5%	36*	4
19	C=CCC1NS(=O)(=O)OC2CCCCC12 (configuration not stated)	-3	-1.0	1.2	0	.	3.1	-2
20	O=C(CSCc1cnn(-c2ccccc2)c1-n1cccc1)NCc1ccccn1	-2	-1.8	-1.5	81*	-4%	-6.6	-1
21	CCN(C(=O)CSc1ncccn1)c1cccc2ccccc12	.	.	3.9	.	.	-3.1	-1
22	O=C(Nc1ccc(S(=O)(=O)Nc2nccs2)cc1)c1cc(=O)[nH]c2ccccc12	2	2.4	1.0	.	-6%	6.7	-7
23	Cc1cc2nc(SCC(=O)O)nc(C)c2cc1C	-5	2.2	3.9	8	-2%	1.8	1
24	COCCn1c(SCC(=O)NC(=O)NC2CCCC2)nc2ccccc2c1=O	.	.	2.3	-2	1%	-2.5	-2
25	CCOC(=O)c1ccc(S(=O)(=O)N2CCN(C(=O)c3nn(C)c(=O)c4ccccc34)CC2)cc1	-1	-0.6	7.7	-6	-3%	-1.9	-6
26	O=C(CNC1CC1)Nc1cc(C(F)(F)F)ccc1Cl	-8	2.6	4.5	5	-13%	-1.2	3
27	COC(=O)Nc1nnc(Cc2ccc(Cl)cc2)s1	-8	?	5.7	0	5%	-1.4	7
28	COc1ccc(S(=O)(=O)Nc2ccccc2-c2nnn(CC(=O)Nc3ccccc3OC)n2)cc1	6	2.4	-1.4	-12	-3%	1.0	-7
29	CCOC(=O)C1(Cc2ccc(Cl)cc2)CCN(Cc2cn(CC)nc2C)CC1	9	0.3	-1.3	1	9%	3.6	10
30	COC(=O)N1CCN(c2ccc(C)cc2)C(C)C1 (configuration not stated)	-1	0.9	-0.2	.	0%	-1.6	-1
31	CCN(c1ccccc1)S(=O)(=O)c1ccc(Cl)c(NC(=O)CSc2n[nH]c(N)n2)c1	-6	1.7	0.3	-1	.	0.6	6
32	O=[N+]([O-])c1ccc(Cl)c(CN2CCCCCC2)c1	1	4.7	5.8	.	.	1.1	0
33	O=C(NNS(=O)(=O)c1ccc2ccccc2c1)c1cc(-c2ccccn2)nc2ccccc12	35	-3.7	-6.8	96*	9%	5.7	-9
34	COc1ccccc1NC(=O)c1ccccc1NS(=O)(=O)c1cccs1	40	4.9	4.3	2	-5%	-3.0	20
35	Cc1ccc(S(=O)(=O)NCc2ccccn2)cc1C	7	-1.8	-0.9	-11	?	-0.8	5
36	COc1ccc(N2CCN(C(=O)CNC(=O)Cc3ccccc3)CC2)cc1	-1	2.9	2.7	79*	.	-0.7	-3
37	Cc1cccc(NS(=O)(=O)c2ccc(C(=O)NCC(C)(C)N3CCOCC3)cc2)c1C	-4	-4.2	1.8	3	4%	2.5	5
38	O=C(O)[C@@H](O)c1ccccc1	-13	-0.8	11	.	-5%	-3.2	-4
39	COc1ccc(OC(C)C(=O)N2CCN(c3ccccn3)CC2)cc1 (configuration not stated)	6	1.1	-1.2	1	-1%	3.0	-18
40	COc1cccc(-c2nc(Oc3cc(C)cc(C)c3)c3ccccc3n2)c1O	-5	0.4	-4.9	-5	.	.	.
41	CCc1ccc(N2CC(C(=O)OCC(=O)Nc3cc(C)on3)CC2=O)cc1 (configuration not stated)	-20	1.0	3.0	0	4%	1.6	-2
42	CN=C1c2cc3c(Br)c(OC)ccc3n2CCN1C	-35	2.3	9.3	-14	-6%	9.6	26
43	Cc1ccc(S(=O)(=O)CCC(=O)OCc2nnc(-c3ccccc3)o2)cc1	.	.	-2.4	3	-7%	-2.4	0
44	Cc1c(NC(=O)C(C)OC(=O)c2sc3ccccc3c2Cl)c(=O)n(-c2ccccc2)n1C (configuration not stated)	32	3.4	-1.4	-7	-7%	-0.5	-6
45	CSc1nsc(SCC(=O)Nc2cccc(C(C)=O)c2)n1	-1	6.9	-3.1	-3	1%	-2.3	-4
46	CCOC(=O)C1=C(COC(=O)/C=C/c2ccc([N+](=O)[O-])cc2)NC(=O)NC1C (configuration not stated)	.	.	-43	-7	-2%	-2.5	-1
47	C/C(=N\NC(=O)COc1ccccc1)c1ccc(O)cc1	-14	1.7	0.1	100*	10%	1.8	-5
48	Cn1c(N)c(S(=O)(=O)N2CCCC2)c(=O)n(C)c1=O	-6	-0.4	1.1	-6	.	-0.2	3
49	Cc1ccc(Nc2c(-c3ccccc3)nc3cnccn23)cc1	12	1.5	0.2	98*	2%	2.7	6
50	CCC(CC)CN1C(Nc2ccccc2)=NC[C@@H]1C	-7	-3.4	1.6	3	.	0.3	-2
51	CCN1CCN(CC(O)COc2cccc(OC)c2)CC1 (configuration not stated)	-3	0.9	-3.1	1	-5%	-1.8	2
52	O=C1CCCc2c1cc(C(=O)NCc1ccco1)c(=O)n2-c1ccccc1	-2	-4.1	5.2	.	?	4.1	-5
53	N#Cc1c(SCc2c(Cl)cccc2Cl)nc(N)[nH]c1=S	.	.	11*	?	.	-2.0	-1
54	COc1cccc(-c2nnc(NC(=O)C(C)C)o2)c1	-5	7.8	3.2	-1	-7%	6.1	1
55	CC(/C=N/NC(=O)NC1CCCCC1)=C\c1ccccc1	-35	-1.2	-3.7	10	.	2.0	9
56	CCN(Cc1nc(-c2ccc(OC)cc2)no1)C(=O)c1ccoc1C	0	0.6	-0.3	-1	.	-2.9	-2
57	COc1ccc2[nH]c(CN3CCC(n4nccc4NC(=O)C4CC4)CC3)c(C)c2c1	1	-2.0	0.5	-6	.	4.5	6
58	Cc1cc(C(=O)Nc2ccon2)cs1	8	-3.2	-3.8	-3	1%	0.7	-7
59	c1ccc(-c2ccc3nnnn3n2)cc1	-1	-1.0	-2.6	-15	1%	0.7	-1
60	O=C(C1CCCN(Cc2ccc(F)cc2)C1)N1CCCCC1 (configuration not stated)	4	?	1.9	-2	-6%	-2.5	-9

(next part)
No.	SMILES	Calb FLC	RanGTP-Imp inh	LANA-H2A inh	ALR H2O2 inh	Vif A3G	HNF4A DNA FP	B2AR ag
61	Nc1nonc1-n1nnc(C(=O)N/N=C/c2ccc(F)cc2)c1-c1cccs1	-5	6.1	-0.8	-6	.	-1.4	0
62	Cc1ccc(S(=O)(=O)NN2C(=O)/C(=C\c3ccc(Cl)cc3)SC2=S)cc1	29	-0.5	-5.4	-2	.	-2.3	-2
63	CCOc1ccc(C2/C(=C(/O)c3ccc4c(c3)CC(C)O4)C(=O)C(=O)N2CC2CCCO2)cc1 (configuration not stated)	-6	-2.7	1.1	-15	-8%	1.0	3
64	CCSc1cc(N2CCCC2)nc(-c2ccccc2)n1	-4	-1.6	2.5	-1	-7%	2.4	-4
65	O=C(C(c1ccccc1)c1ccccc1)N1CCN(Cc2ccncc2)CC1	-5	5.3	9.6	-5	-7%	-2.4	4
66	COc1ccc(/C=C/c2ccc3ccccc3[n+]2C)cc1OC	-6	-17	-46	-2	7%	1.5	-23
67	CCOc1ccc(CCNC(=O)c2[nH]c(C)c(C(C)=O)c2C)cc1OCC	-6	1.5	3.7	-1	-1%	-1.0	12
68	CC1CCCN(c2ccc(N)cc2C(N)=O)C1 (configuration not stated)	-26	-4.2	-1.3	98*	.	0.9	1
69	CCOC(=O)C1CCN(c2ccc(-c3cccs3)nn2)CC1	-24	-1.5	4.3	-5	-8%	1.5	-15
70	CCn1c(CNC(=O)COc2ccc(C(C)C)cc2)nnc1SCC(=O)Nc1ccccc1	10	?	0.2	-4	3%	0.6	-12
71	CCOC(=O)N1CCC(NC(=O)c2cccc3c2C(=O)N(c2ccc(OC)cc2)C3)CC1	7	8.6	4.7	.	0%	-9.7	0
72	CC(C(=O)Nc1ccccn1)(c1ccccc1)c1ccccc1	20	1.9	0.0	40	.	1.2	1
73	CN(CCNC(=O)C1CCC(=O)N(Cc2cccc(F)c2)C1)CCc1ccccc1 (configuration not stated)	-23	5.5	-2.8	-8	.	4.4	-1
74	CC(Sc1ncccn1)C(=O)NNC(=O)c1cccc(Cl)c1 (configuration not stated)	.	.	2.0	-3	.	2.6	9
75	O=[N+]([O-])c1cc(Cl)cc(/C=N/Nc2nc3ccccc3s2)c1O	-5	-4.2	4.3	1	15%	-1.5	11
76	NCC/C=C1/c2ccccc2CSc2ccccc21	5	-1.4	-1.4	.	-9%	-0.5	-4
77	COc1ccc(/C=C2\SC(=S)N(CCC(=O)NC3C=CS(=O)(=O)C3)C2=O)cc1 (configuration not stated)	?	0.5	-2.8	-4	.	-0.7	4
78	CC1CCCC(NC(=O)COC(=O)c2ccccc2Sc2ccccc2C#N)C1C (configuration not stated)	0	-3.6	-6.8	-9	-21%	4.0	1
79	COc1cc(C2NC(=O)C(C#N)=C(S)N2c2ccccc2)ccc1OC(C)C (configuration not stated)	-4	3.0	2.4	28	5%	3.3	3
80	O=C(CCN1C(=O)[C@@H]2Cc3ccccc3CN2C1=O)Nc1cccc(F)c1	1	-0.5	5.3	1	.	2.2	-5
81	Cc1cccc(N2CCN(C(=O)Cc3ccc(Br)cc3)CC2)c1C	-2	0.7	4.1	.	-6%	-3.4	2
